2A firefly = lowers the firefly signal of an FMDV 2A StopGo reporter; 0.23% of 120,000 active; AID 1745856; Potency, µM (series often up to 57.5 µM), for the others: at the highest dose signal change, negative = less light; HEK cells with a luciferase reporter of 2A StopGo recoding; active = well fitted falling curve with a large enough effect; inconclusive = small, poorly fitted or top-dose-only effect; inactive = no such curve, though single readings can be large or run the other way; note: nearly all actives have a fitted effect of over 60% in size; overnight with compound
2A Renilla = FMDV 2A StopGo reporter, Renilla signal. Potency, µM (highest dose often 57.5 µM), inactives show at the top dose signal change, negative = less light. 0.32% of 120,000 active. HEK cells with a luciferase reporter of 2A StopGo recoding; active means well fitted falling curve with a large enough effect; inconclusive means small, poorly fitted or top-dose-only effect; inactive means no such curve, though single readings can be large or run the other way; note: nearly all actives have a fitted effect of over 55% in size; overnight with compound
* hit, by the source's call; ? = inconclusive; [ ] = dose if it differs, or a comment. % is set by controls: 0 for no effect and ±100 for the full control effect; potency is the fitted concentration of half-maximal effect.

Each structure is followed by: 2A firefly | 2A Renilla
CCOc1ccc2oc(C(=O)NC(c3ccc(F)cc3)c3nccn3C)c(C)c2c1 (stereo not given)
 : 61.5%[activator] | 9.0%
COc1ccc(NC(=O)CN2CCN(S(=O)(=O)c3ccc(Br)cc3)CC2)cc1
 : -10.3% | 3.0%
Cc1oc2c(c1C(=O)NCc1ccccc1F)C1=NCCN1C=N2
 : 24.6% | 13.4%
CNC(=O)C1(NC(=O)CNC(=O)CC(C)(C)C)CCCCC1
 : -4.2% | -0.1%
COc1ccc2cnn(CC(=O)N3CCN(c4ccc(F)cc4)CC3)c(=O)c2c1OC
 : 3.9% | -8.6%
COc1ccc(S(=O)(=O)Nc2ccccc2CCc2nc3ccccc3n2C)cc1OC
 : -0.5% | 21.7%
COC(=O)NCc1c(C)nn(-c2ccccc2)c1-n1cccc1
 : -13.7% | -8.5%
O=C(NCCC1=CCCCC1)c1ccc2c(c1)N(Cc1ccccc1)C(=O)c1ccccc1S2=O (stereo not given)
 : -11.7% | -13.7%
COc1ccc2cc3cc(C(=O)N4CCN(c5cccc(Cl)c5)CC4)sc3nc2c1
 : -16.6% | -4.4%
CCc1ccc(CNCC2CCCO2)cc1 (stereo not given)
 : 7.6% | 10.2%
Cc1ccc(SCC(=O)NC(C)(C#N)C2CC2)c(C)c1 (stereo not given)
 : -15.6% | -1.4%
O=C(NCCc1ccccc1)c1cc(-c2ccc(Cl)cc2)on1
 : 15.2% | 3.3%
CCCCN(C(=O)C1CCC(CNS(=O)(=O)c2cccc3nsnc23)CC1)c1ccccc1 (stereo not given)
 : ? | ?
O=C(/C=C/c1cccc(Cl)c1Cl)NC(C1CC1)C1CC1
 : 14.9% | -10.8%
N#CCCN(C(=O)CSc1nnnn1-c1ccccc1)c1ccc(F)cc1
 : -10.8% | -6.9%
COc1ccc(CNC(=O)c2cc(-c3ccc(Cl)cc3)n[nH]2)cc1
 : 9.6% | -10.9%
O=C(O)CCCNC(=O)Cn1ccc2c(Br)cccc21
 : 30.9% | 17.5%
COc1ccc(Nc2cc(C(=O)NCCCN(C)Cc3ccccc3)c3ccccc3n2)cc1OC
 : -36.6% | ?
O=CN1CCN(C(C(=O)O)c2c[nH]c3cc(Br)ccc23)CC1 (stereo not given)
 : -16.0% | -10.9%
O=S(=O)(Nc1nc2ccccc2nc1N1CCN(c2ncccn2)CC1)c1ccccc1
 : 33.7%[activator] | 49.3%[activator]
COc1ccc(-c2nc(NCc3cccc(OC)c3)c3ccccc3n2)cc1
 : 24.3% | 71.1%[activator]
Cc1ccccc1-c1nnc(SCC(=O)N(C)c2ccccc2)o1
 : 7.2% | 13.0%
CCC(CC)C(=O)Nc1ccc2nc(SCC(=O)N3c4ccccc4CC3C)sc2c1 (stereo not given)
 : -24.2% | ?
CC1(C)CC(NC(=S)Nc2cccc(F)c2)CC(C)(C)N1
 : 0.0% | 11.7%
Fc1cccc(-n2ncc3c2ncn2nc(COc4ccc(Cl)cc4)nc32)c1
 : 0.0% | 3.2%
COCCNc1oc(-c2ccc(OC)cc2)nc1S(=O)(=O)c1ccccc1
 : 10.1% | 69.4%[activator]
COc1cccc(C(=O)Oc2ccc(C)cc2C(=O)/C=C/c2ccc(F)cc2)c1
 : 3.9% | ?
Cc1ccc2nc(-c3ccco3)c(Nc3ccc4c(c3)OCCO4)n2c1
 : 101.0%[activator] | -11.9%
CCOc1cc(C(=O)NCCc2csc3nc(-c4ccccc4F)nn23)cc(OCC)c1OCC
 : -15.9% | -22.3%
CC(C)C(NC(=O)c1ccccc1Cl)C(=O)NOCc1ccccc1 (stereo not given)
 : 3.6% | 6.0%
COc1ccc2c(c1)OCCN(c1ccc(NC(=O)c3cccc(C)c3)cc1C(=O)O)C2
 : 21.4% | -0.7%
CC(C)c1ccc(/C=N/NC(=O)CCc2ccccc2)cc1
 : 35.1%[activator] | 22.5%
O=C(NCCNC(=O)c1cn(Cc2ccccc2)c2ccccc12)c1ccncc1
 : -13.6% | -7.4%
CCn1nc(C(=O)OC(C)C(=O)N2CCCc3ccccc32)c2ccccc2c1=O (stereo not given)
 : -9.1% | 12.5%
O=C(/C=C/c1ccco1)NCCC1=CCCCC1
 : 74.0%[activator] | 8.8%
Nc1nccnc1C(=O)NCc1cn2ccccc2n1
 : 34.9%[activator] | 2.6%
CCCCOC(=O)COc1ccc2c(=O)c(Oc3ccccc3Br)coc2c1
 : -4.2% | -0.8%
O=C(COc1ccc2c(=O)c(Oc3ccc(F)cc3)coc2c1)Nc1ccccc1Br
 : 6.6% | -2.1%
CC(=O)NC12CC3CC(C1)CC(C(=O)Oc1ccc(-c4ccc(C#N)cc4)cc1)(C3)C2
 : 0.0% | -3.6%[1.06 µM]
CC1CCN(C(=O)c2nn(C)c3c2CCc2sccc2-3)CC1
 : 152.9%[activator] | 40.3%[activator]
Fc1ccccc1-c1nc(-c2ccc(Br)cc2)no1
 : 0.0% | 13.3%
CNC(=O)CNC(=O)c1ccc2[nH]c(C)c(C)c2c1
 : 12.0% | -4.0%
CCCOc1ccc(/C(O)=C2\C(=O)C(=O)NC2c2ccc(C(C)(C)C)cc2)cc1 (stereo not given)
 : 15.1% | -14.5%
O=C(Cc1ccccc1)NC1CCN(c2ccc(S(=O)(=O)C(F)(F)F)cc2)CC1
 : 3.16µM* | 3.55µM*
Cc1cccc(C(=O)N(c2ccc(C)c(Cl)c2)C2C=CS(=O)(=O)C2)c1 (stereo not given)
 : 0.5% | -6.7%
O=C(COC(=O)C12CC3CC(CC(C3)C1)C2)Nc1ccc([N+](=O)[O-])cc1C(F)(F)F
 : 9.4% | 8.0%
Brc1cccc(-c2nc(-c3ccccc3)no2)c1
 : 185.4%[activator] | 1.0%
COc1ccc(NC(=O)Cn2nnc3sc4c(c3c2=O)CCCC4)cc1
 : -14.3% | -8.0%
Clc1ccccc1COc1ccc2ccccc2c1CNCc1cccnc1
 : -18.1% | -21.2%
O=C(NCc1ccc(F)cc1)c1cnc(N2CCOCC2)c2ccccc12
 : -0.9% | 20.3%

The list continues:
Each structure is followed by: 2A firefly | 2A Renilla
COC(=O)C(NC(=O)c1ccc(Cl)cc1)(Nc1nc(C2CC2)cs1)C(F)(F)F (stereo not given)
 : 13.6% | 19.8%
Cc1nc2ncnn2c(N2CCOCC2)c1Cc1ccccc1
 : 18.1% | 6.0%
O=C(Nc1oc2ccccc2c(=O)c1-c1ccc(F)cc1)c1cccs1
 : 16.6% | 26.1%
Cc1ccc(CN2C(=O)CN(C3CCC(C)CC3)C(=O)C2c2ccc(F)cc2)cc1 (stereo not given)
 : 0.0% | -11.4%
Cc1cc2ccccc2n1CC(=O)N1CCC(C(=O)O)CC1
 : -8.1% | -15.6%
COc1ccccc1CNC(=O)CCn1c(=O)c2cccn2c2cccnc21
 : 4.0% | -10.0%
COc1cccc(OC(C)CCN2CCC(C(O)(c3ccccc3)c3ccccc3)CC2)c1 (stereo not given)
 : -7.6% | -9.5%
CCc1ccc(C(=O)N2CCCC2)cc1
 : 0.0% | 30.4%[activator]
O/N=C/c1ccc(Cl)c(Cl)c1
 : 8.0% | 3.0%
O[C@H](COc1cc(F)cc(F)c1)CN1CCC(C(O)(c2ccccc2)c2ccccc2)CC1
 : -20.7% | -17.7%

Fetched one by one from above:
Each structure is followed by: 2A firefly | 2A Renilla
CCc1ccc(CNCC2CCCO2)cc1 (stereo not given)
 : 7.6% | 10.2%
Cc1ccc(CN2C(=O)CN(C3CCC(C)CC3)C(=O)C2c2ccc(F)cc2)cc1 (stereo not given)
 : 0.0% | -11.4%
O=C(Cc1ccccc1)NC1CCN(c2ccc(S(=O)(=O)C(F)(F)F)cc2)CC1
 : 3.16µM* | 3.55µM*

Further records:
Each structure is followed by: 2A firefly | 2A Renilla
Cc1ccc(C)c(N2CCN(C(=O)c3cccn4c(=O)c5ccccc5nc34)CC2)c1
 : -5.0% | -18.8%
Cn1cnnc1C1CCCN(S(=O)(=O)N2CCCCC2)C1 (stereo not given)
 : -11.5% | -6.0%
CNc1c(NC(=O)NCC2CCCO2)c(=O)oc2ccccc12 (stereo not given)
 : 6.5% | -1.7%
COc1ccc(CNC(=O)Cn2nc(C(=O)O)c3ccccc3c2=O)cc1
 : 25.8% | 14.6%
COc1cc(NC(=O)c2cc(S(=O)(=O)N3CCc4ccccc43)cn2C)cc(OC)c1
 : -13.8% | -1.1%
Cc1ccc(NC(=O)c2cn(Cc3ccccc3)nn2)c(C)c1
 : 0.0% | 43.2%[activator]
Cc1cccc(CNC(=O)CN2C(=O)CN(C(=O)NCc3ccccc3)c3ccccc32)c1
 : -8.0% | 13.5%
COP(=O)(OC)c1nc(Cc2ccc(Cl)cc2)oc1NCc1ccco1
 : -6.7% | -4.6%
C[N+](C)(C)CC#CCCCCC#CC[N+](C)(C)C
 : -2.0% | -3.1%
Cc1oc(-c2cccs2)nc1CC(=O)N1CCOC(C)C1 (stereo not given)
 : -0.7% | 52.3%[activator]
Cc1cccc(CNC(=O)c2ccco2)c1
 : 68.8%[activator] | -2.8%
CCN(CC(=O)N(C)C)C(=O)CCc1ncc(-c2ccccc2Cl)o1
 : 114.7%[activator] | 15.1%
Cc1cc(C)c(/C=C/c2onc(C)c2S(=O)(=O)N2CCC(C(=O)NCc3ccccc3Cl)CC2)c(C)c1
 : -18.8% | 3.1%
Cc1ccc(-c2cc(C(=O)N3CCN(C)CC3)c3ccccc3n2)s1
 : 115.8%[activator] | 57.5%[activator]
CC(C)C[C@H]1COc2cc(Br)ccc2S(=O)(=O)N1Cc1cn(CCC2OCCCO2)nn1
 : 7.2% | 8.3%
Cc1ccc(NC2=CC(c3ccccc3F)N(c3ccc(C)cc3)C2=O)cc1 (stereo not given)
 : 19.2% | -5.3%
O=C(CCc1ncc(-c2c(F)cccc2F)o1)NCc1ccc2c(c1)OCO2
 : 30.1%[activator] | 7.0%
Cc1ccc(NC(=O)Nc2cc(S(=O)(=O)N3CCOCC3)ccc2NCC2CCCO2)cc1 (stereo not given)
 : 12.7% | -2.1%
O=C(Nc1ccc2oc(-c3ccc4ccccc4c3)nc2c1)c1cccs1
 : 142.6%[activator] | 3.0%
CCc1ccc(-n2nc(C)c3c(C)cc(=O)n(Cc4nc(-c5ccccc5)oc4C)c32)cc1
 : -10.4% | -4.8%
Nc1c(NC/C=C\COc2cc(CN3CCCCC3)ccn2)c(=O)c1=O
 : -17.9%[27 µM] | -10.0%[23.8 µM]
NC(=O)C1CCN(C(=O)c2ccc(Cl)c(S(=O)(=O)N3CCc4ccccc43)c2)CC1
 : 3.7% | -9.1%
CCc1ccc(C2c3c(oc4cc(C)c(C)cc4c3=O)C(=O)N2c2nc(C)c(C(=O)OC)s2)cc1 (stereo not given)
 : 10.0% | 4.4%
Cc1cn2c(=O)cc(COC(=O)COc3ccc(C)c(C)c3)nc2s1
 : 0.0% | 5.3%
O=S(=O)(c1ccc(-c2csc(-c3ccc(F)cc3)n2)cc1)N1CCOCC1
 : 33.6%[activator] | 5.6%
COC(=O)CN1C(=O)CSc2ccc(S(=O)(=O)Nc3cccc(C)c3)cc21
 : -7.5% | 185.6%[activator]
Cc1ccc2c(c1)sc1nc(=O)n(-c3cccc(Cl)c3)c(=O)n12
 : ? | 6.5%
COc1cc2c(cc1OC)C(COc1ccc3c(C)cc(=O)oc3c1)N(C(=O)c1ccc(C)c(C)c1)CC2 (stereo not given)
 : -11.4% | 6.4%
CCc1ccc(NC(=O)CN2C(=O)C3(SCC(=O)N3c3ccccc3)c3ccccc32)cc1 (stereo not given)
 : 42.2%[activator] | 23.5%
CC(=O)c1ccc(N2CCN(c3ncnc4onc(-c5ccc(Cl)cc5)c34)CC2)cc1
 : -22.5% | -3.8%
COc1ccc(N2CCN(C(=O)Nc3ccccc3Cl)CC2)cc1
 : 31.7%[activator] | 103.8%[activator]
N#Cc1ccc(C(=O)OCC(=O)c2ccc3c(c2)OCCO3)cc1
 : 16.6% | -6.7%
COc1ccc(NC(=O)CSc2nnc(-c3nnn(-c4ccc(F)cc4)c3C)o2)cc1
 : 42.7%[activator] | 5.2%
CC(=O)c1cccc(NC(=O)CCCN(c2cccc(Cl)c2)S(C)(=O)=O)c1
 : -6.6% | 15.4%
CC(C)(C)c1ccc(-c2nnc(SCC(=O)N3CCOCC3)n2C2CCCCC2)cc1
 : -15.8% | -2.7%
Cc1ccc(-c2cc(C(=O)O)n(Cc3ccccc3)n2)cc1
 : 0.0% | 27.1%
CCc1cccc(C)c1NC(=O)c1ccc(S(=O)(=O)N(C)c2ccccc2OC)cc1
 : ? | -26.1%
O=C(Nc1nc2ccccc2s1)NC1CC(=O)N(c2ccc(F)cc2)C1 (stereo not given)
 : 39.0%[activator] | 3.8%
COc1ccc(CCNC(=O)c2cc(-c3ccc(C)cc3)nc3n[nH]c(-c4ccccc4)c23)cc1OC
 : 3.6% | 155.2%[activator]
Cc1ccc(C2NC(=S)NC3=C2CCc2ccccc23)cc1 (stereo not given)
 : 15.7% | -5.7%
CC(C)Nc1nc(N)c(C(=O)c2ccccc2)s1
 : -21.3% | ?
CCOc1ccc(-c2ccccc2)cc1C=O
 : 203.1%[activator] | 16.6%
CCCCn1nc(C(=O)NN2C(=O)NC3(CCCCC3)C2=O)c2ccccc2c1=O
 : 3.1% | 6.3%
Cc1ccccc1Nc1cc(C(=O)NCc2cccs2)c2ccccc2n1
 : 1.2% | 151.9%[activator]
COc1ccc(S(=O)(=O)NCC(c2ccco2)N2CCN(c3ccc(F)cc3)CC2)cc1 (stereo not given)
 : ? | 24.9%
CCN1CCc2c(sc3c2c(=O)n(-c2ccc(Cl)cc2)c(=O)n3CCN(C)C)C1
 : -4.2% | -16.3%
Cc1c(NS(=O)(=O)c2ccc(Cl)cc2)c(=O)n(-c2ccccc2)n1C
 : -9.5% | 2.4%
COC(=O)c1ccc(NC(=O)CC2C(=O)N(c3cccc(OC)c3)C(=O)N2Cc2cccc(OC)c2)cc1 (stereo not given)
 : -13.8% | -2.5%
O=C(O)CCC(=O)N1N=C(c2ccsc2)CC1c1ccccc1 (stereo not given)
 : 15.3% | -8.7%

Screening data deposited in PubChem BioAssay by National Center for Advancing Translational Sciences (NCATS).
